# CSC inhib = cancer stem cell inhibition; cancer stem cell-like cells viability, luminescence; inhibition, % at 7.5 µM; 1.1% of 300,000 active;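 active = mean at 75% or more and at least half the replicates too; inconclusive = mean and replicates disagree; tested in HMLE shEcad cells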;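 note: 0% = median of negative and 100% = median of positive control wells; the first replicate is given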
# HIV Env fusion = HIV envelope-mediated fusion inhibition | inhibition, % at 12.3 µM | HeLa-JRFL Env/CEM21 cell fusion, luciferase | 1.1% of 360,000 active | AID 651610;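 active = mean replicate inhibition score of at least 50 and every replicate individually at or above 50; inconclusive = only one of the two criteria met; inactive = mean below 50 and not all replicates reaching 50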;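 note: 0% = plate neutral controls and 100% = maraviroc near 300 nM; one replicate is shown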
# MT1-MMP act inh = blocks activation of human MT1-MMP; AID 651647; GFP/RFP ratio change, % at 20 µM; HT1080 RFP-PRO-GFP cells, GFP/RFP ratio fluorescence, overnight; percent of plate control window, DMSO zero; 0.061% of 360,000 active; P50281;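 active = GFP/RFP ratio change of at least 30% with cell ATP level not reduced by more than half and red fluorescence within 50% of control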; note: strong numbers were not always called active
#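 Read-out: GFP/RFP fluorescence ratio; Test system: RFP-PRO-GFP reporter HT1080 cells; Compound dosing: single-point 20 µM compound, 1% DMSO; Times: overnight compound exposure at 37 °C.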
# Rce1 inhib = inhibitors of yeast Ras-converting enzyme; Q03530; yeast membranes, quenched prenylated peptide cleavage fluorescence; calls only; 0.27% of 290,000 active; AID 2563;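 active = fall in fluorescence gain of 50% or more versus controls, with final raw signal at or below 3038400; inconclusive = same 50% fall but final raw signal above 3038400; inactive = fall in fluorescence gain under 50%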;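 note: plate controls were neutral control wells for no effect and wells lacking membranes for full effect; tested at 10 µM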
# Target sequence (Q03530 whole entry, looked up): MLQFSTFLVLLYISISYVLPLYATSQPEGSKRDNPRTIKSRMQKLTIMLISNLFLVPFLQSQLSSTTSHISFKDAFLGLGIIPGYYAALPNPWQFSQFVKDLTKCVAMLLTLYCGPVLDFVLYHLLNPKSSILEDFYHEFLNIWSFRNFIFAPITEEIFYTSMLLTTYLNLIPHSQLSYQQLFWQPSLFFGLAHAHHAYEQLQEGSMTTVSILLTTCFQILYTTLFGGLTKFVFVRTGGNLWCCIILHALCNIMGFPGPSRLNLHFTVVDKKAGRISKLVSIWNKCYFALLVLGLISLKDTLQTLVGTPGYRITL
# Yeast UUG start = modulators of start codon recognition fidelity in yeast; S. cerevisiae UUG-firefly luciferase reporter, luminescence/redox ratio; AID 602363; 0.13% of 350,000 active; activity score, % at 18.7 µM;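 active = replicate mean at a twofold rise or more, about +100% in these data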;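 note: firefly luciferase made from a UUG start codon reports start codon fidelity; reporter light over untreated wells divided by growth signal over untreated wells; some hits fall short of that in this replicate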
# PABP polyA inh = blocks human PABP binding to poly(A) RNA. fluorescence polarization. P11940. 1% of 290,000 active. AID 2014. inhibition, % at 35 µM;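 active = 50% or more with normal probe brightness, or confirmed in later tests; inconclusive = above 50% with abnormal brightness, or retests that disagree; inactive = below 50% or failed in later tests; about a fifth of its hits are not listed in these tables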;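 note: calls also rest on retests at 20 µM and on dose response follow-up; controls were probe without protein and protein plus probe with vehicle; some compounds called inactive have numbers as strong as hits; many hits fall short of the cut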
# Target sequence (P11940 whole entry, looked up): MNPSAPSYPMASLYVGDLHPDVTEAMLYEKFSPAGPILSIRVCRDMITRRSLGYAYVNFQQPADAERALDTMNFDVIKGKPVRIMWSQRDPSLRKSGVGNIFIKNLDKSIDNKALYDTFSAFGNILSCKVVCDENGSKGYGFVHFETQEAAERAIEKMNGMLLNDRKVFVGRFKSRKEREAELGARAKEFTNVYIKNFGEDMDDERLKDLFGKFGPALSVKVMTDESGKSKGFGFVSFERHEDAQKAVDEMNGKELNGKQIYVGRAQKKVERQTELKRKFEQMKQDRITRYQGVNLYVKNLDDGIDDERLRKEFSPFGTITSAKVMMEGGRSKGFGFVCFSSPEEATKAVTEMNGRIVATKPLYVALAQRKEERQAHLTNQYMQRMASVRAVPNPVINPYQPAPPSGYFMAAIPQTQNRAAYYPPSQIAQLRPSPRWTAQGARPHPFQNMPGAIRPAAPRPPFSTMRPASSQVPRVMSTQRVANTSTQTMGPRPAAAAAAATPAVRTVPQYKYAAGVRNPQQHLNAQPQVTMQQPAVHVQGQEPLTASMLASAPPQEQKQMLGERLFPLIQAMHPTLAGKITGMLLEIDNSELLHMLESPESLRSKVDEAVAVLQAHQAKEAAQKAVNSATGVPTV
# eIF4H inh = inhibitors of RNA binding by human eIF4H; inhibition, % at 35 µM; 0.94% of 290,000 active; Q15056; eIF4H fluorescence polarization binding assay;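 active = 50% or more with normal probe brightness, or confirmed in later tests; inconclusive = above 50% with abnormal brightness, or retests that disagree; inactive = below 50% or failed in later tests; about a fifth of its hits are not listed in these tables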;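 note: calls also rest on retests at 20 µM and on dose response follow-up; 0% = protein and probe with vehicle and 100% = probe without protein; strong numbers were not always called active; many hits fall short of the cut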
# eIF4H inh retest = second read-out of eIF4H inh, no call of its own (marks repeat the call); inhibition, %; compound at 20 µM; confirmation average;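 mean of two retest wells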
# PABP polyA inh retest = also measured in PABP polyA inh; calls as there; inhibition, %; compound at 20 µM; confirmation repeats;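 mean of two retest wells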
# MT1-MMP act inh RFP = second read-out of MT1-MMP act inh, no call of its own (marks repeat the call); RFP signal change, %; measured here: RFP expression control read;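 0 = vehicle wells; hits needed this value within 50% of zero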
# * hit, by the source's call; i = inactive; ? = inconclusive; / = not tested or not shown; & = joins results of further samples.
SMILES,CSC inhib,HIV Env fusion,MT1-MMP act inh,MT1-MMP act inh RFP,Rce1 inhib,Yeast UUG start,PABP polyA inh,eIF4H inh,others
CC[C@]12c3[nH]c4ccc(OC)cc4c3CCN1C(=O)C(CC(=O)NCCCn1ccnc1)C[C@@H]2C(=O)N1CCN(C(=O)C2CC2)CC1 (stereo partly specified),/,-33,3,7,/,-8,/,/,
COc1cc(/C=N/Nc2nc(C)cc(C)n2)cc(OC)c1OC,8,3,1,1,i,-27,-2,14,
CC(NC(=O)Cc1ccccc1)c1nc2ccccc2[nH]1 (stereo unspecified),-6,-9,4,3,i,1,15,14,
Cc1c(Cl)ccc2sc(NC(=O)C3CC3)nc12,1,-17,2,-10,i,-8,-1,-5,
O=C(CN1CCN(S(=O)(=O)c2ccc(F)cc2)CC1)N1CCOCC1,-3,13,3,6,i,2,4,-9,
CCc1nn(CC(=O)N2CCN(c3ccc(OC)cc3)CC2)c(=O)c2cc3occc3n12,-13,7,0,0,i,-13,-1,-5,
COc1ccc(F)cc1CN1CCN(c2ncnc3scc(-c4ccccc4)c23)CC1,6,5,-9,-6,i,-1,-18,-9,
CCC(=O)Nc1cc2nn(-c3ccc(C)cc3)nc2cc1C,-3,-58,-3,0,/,-25,-8,-8,
COc1ccc(S(=O)(=O)N(CCc2ccccc2)CC(=O)N2CCOCC2)cc1,-16,-8,-4,-2,i,6,4,-6,
CC(=O)Nc1cccc(-c2ccnc3c2CC(C)(C(=O)Nc2cccc(C(C)=O)c2)O3)c1 (stereo unspecified),/,-48,6,-6,/,-6,/,/,
Cc1cc(Cl)ccc1-c1nc(NC(C)C)nc2ccsc12,/,-31,-4,-7,/,-2,/,/,
O=P(O)(CP(=O)(c1ccccc1)c1ccccc1)c1ccccc1,-20,/,35*,1.9*,i,-10,8,-11,
Cc1c(C(=O)c2ccc(Cl)cc2[N+](=O)[O-])c2ccccn2c1CCC#N,?,1,/,/,i,/,5,48,
Cc1ccc(Nc2nc(-c3ccc(O)cc3O)cs2)nc1,-9,-211,1,-2,i,/,4,-12,
COC(=O)c1cc(S(=O)(=O)n2nc(C)cc2C)c(Cl)cc1Cl,13,/,/,/,i,/,6,0,
CN(Cc1cccs1)C(=O)c1ccc(Cl)c(S(=O)(=O)N2CCCCCC2)c1,-12,23,2,-13,/,-7,/,/,
COc1ccc(-c2cnc(C(N)=O)c(=O)[nH]2)cc1,/,8,-9,3,/,3,/,/,
C=CCNC(=O)NC(=O)COC(=O)/C(C#N)=C/c1cc(C)n(CC(C)C)c1C,-11,-46,4,1,i,-5,-2,-7,
COCCCn1c(=S)[nH]c2c(sc3ccccc32)c1=O,-20,-12,1,-1,i,/,10,3,
Cc1ccc(C(NC(=O)CN2C(=O)NC3(CCCC3)C2=O)c2ccccc2)cc1 (stereo unspecified),5,-7,-1,2,/,-10,/,/,
Cc1[nH]c2ccccc2c1C(=O)COC(=O)c1c(-c2ccccc2)noc1C,36,8,0,-3,i,/,2,2,
Oc1[nH]c2ccccc2c1N=Nc1ccc(C(F)(F)F)cn1,12,/,4,0,i,-10,-4,0,
COc1ccccc1/C=C/C(=O)OCC(=O)NC1CC1,/,-17,-1,-2,/,-15,/,/,
CCOc1cccc(CN2CCCC(N3CCc4cc(OC)c(OC)cc4C3)C2)c1O (stereo unspecified),17,9,1,-1,i,-23,10,-6,
CN1CCN(C(c2cccs2)c2nnnn2Cc2ccc(F)cc2)CC1 (stereo unspecified),-11,-7,0,-3,i,/,11,-4,
# (listing goes on)
SMILES,CSC inhib,HIV Env fusion,MT1-MMP act inh,MT1-MMP act inh RFP,Rce1 inhib,Yeast UUG start,PABP polyA inh,eIF4H inh,others
N=C(N)CCCOc1ccccc1-c1ccccc1,-5,/,-5,2,i,/,-3,-16,
CCOc1ccc(S(=O)(=O)N(CC(=O)N/N=C/c2cccs2)c2ccc(C)cc2)cc1,27,-30,-3,-6,i,-22,-8,-14,
CC(C)CCCN1C(Nc2ccccc2)=NC[C@@H]1Cc1ccccc1,6,/,3,4,i,-6,6,9,
CC(=O)C1=C(C)NC(SCC(=O)Nc2nccs2)=C(C#N)C1c1ccccc1Cl (stereo unspecified),36,14,3,6,i,/,2,5,
CCOC(=O)Cn1nnnc1C,-3,-48,3,4,i,/,-4,-2,
CNS(=O)(=O)c1cccc(C(=O)OCC(=O)N2c3ccccc3NC(=O)C2(C)C)c1,-15,1,9,0,/,-8,/,/,
CCOCCCNC1=C(Cl)C(=O)c2ccccc2C1=O,24,3,11,6,i,/,2,2,
COc1ccc(NC2CCCN(C(=O)c3ccc(C(C)=O)cc3)C2)cc1 (stereo unspecified),-12,3,-4,-1,i,-17,-12,1,
CCCCN(C)CCCNC(=O)c1cn(CC)c2ccc(S(=O)(=O)N3CCc4ccccc4C3)cc2c1=O,/,0,0,-3,i,/,12,-6,
COc1ccc(N/C(=N/c2nc(C)cc(C)n2)NC(=O)c2ccccc2)cc1,4,-5,1,-1,i,/,-5,4,
O=C(O)c1cc(S(=O)(=O)N2CCN(S(=O)(=O)c3ccccc3)CC2)ccc1Cl,0,-1,0,0,i,-9,-2,-12,
CC(C)COc1cccc(-c2cc(C(=O)Nc3ccon3)c3ccccc3n2)c1,/,-1,-2,-3,i,2,-1,-8,
COc1ccc2nc(SCC(=O)NC(C)C)[nH]c2c1,-12,10,-7,-7,i,/,-3,-10,
CCc1n(CC(O)COCC2CC=CCC2)c2ccccc2[n+]1C (stereo unspecified),/,-5,-1,0,i,-6,50,-18,
COCCOC(=O)C1=C(C)NC(=O)NC1c1c(Cl)nc2ccccn2c1=O (stereo unspecified),-11,/,-5,5,i,-14,0,32,
CC(C)c1ccc(/C=C/C(=O)N2CCc3ccccc3C2)cc1,9,/,0,-4,i,1,4,-2,
CCCCOC(=O)c1cc(-c2ccc(/C=N/n3cnnc3)o2)ccc1Cl,-9,-18,-1,-7,i,-13,/,/,
COc1cc(NS(=O)(=O)c2ccc(F)cc2)c(OC)cc1NC(=O)C1CC1,/,/,/,/,i,/,-4,3,
COCCN1CCN(C(=O)c2cc(COc3ccc(F)c(F)c3)on2)CC1,-3,/,0,1,i,-24,-5,-8,
O=C(N/N=C/c1ccccn1)c1cccc(S(=O)(=O)Nc2ccccc2Cl)c1,-1,5,2,1,i,/,7,20,
Cc1cccn2c(=O)c(/C=C3\SC(=S)N(CC(C)C)C3=O)c(NCCCOC(C)C)nc12,/,/,-236,5,/,-14,?,?,
Cc1nn(-c2ccccc2)c(C)c1/C=N/NC(=O)c1cc(-c2cccc3ccccc23)n[nH]1,60,-20,1,-5,i,-4,2,0,
O=C(CSc1ncn[nH]1)N1CCCCC1,-5,8,2,3,i,-15,-5,7,
CC1(C(=O)NCc2ccc3c(c2)OCO3)CCN1Cc1csc2ccccc12 (stereo unspecified),/,98*,1,-1,/,0,/,/,
O=C(CSc1ccccc1)NCC1(N2CCOCC2)CCCCC1,4,/,-2,3,i,/,/,/,

# Twelve successive compounds already listed:
SMILES,CSC inhib,HIV Env fusion,MT1-MMP act inh,MT1-MMP act inh RFP,Rce1 inhib,Yeast UUG start,PABP polyA inh,eIF4H inh,others
CCc1n(CC(O)COCC2CC=CCC2)c2ccccc2[n+]1C (stereo unspecified),/,-5,-1,0,i,-6,50,-18,
COCCOC(=O)C1=C(C)NC(=O)NC1c1c(Cl)nc2ccccn2c1=O (stereo unspecified),-11,/,-5,5,i,-14,0,32,
CC(C)c1ccc(/C=C/C(=O)N2CCc3ccccc3C2)cc1,9,/,0,-4,i,1,4,-2,
CCCCOC(=O)c1cc(-c2ccc(/C=N/n3cnnc3)o2)ccc1Cl,-9,-18,-1,-7,i,-13,/,/,
COc1cc(NS(=O)(=O)c2ccc(F)cc2)c(OC)cc1NC(=O)C1CC1,/,/,/,/,i,/,-4,3,
COCCN1CCN(C(=O)c2cc(COc3ccc(F)c(F)c3)on2)CC1,-3,/,0,1,i,-24,-5,-8,
O=C(N/N=C/c1ccccn1)c1cccc(S(=O)(=O)Nc2ccccc2Cl)c1,-1,5,2,1,i,/,7,20,
Cc1cccn2c(=O)c(/C=C3\SC(=S)N(CC(C)C)C3=O)c(NCCCOC(C)C)nc12,/,/,-236,5,/,-14,?,?,
Cc1nn(-c2ccccc2)c(C)c1/C=N/NC(=O)c1cc(-c2cccc3ccccc23)n[nH]1,60,-20,1,-5,i,-4,2,0,
O=C(CSc1ncn[nH]1)N1CCCCC1,-5,8,2,3,i,-15,-5,7,
CC1(C(=O)NCc2ccc3c(c2)OCO3)CCN1Cc1csc2ccccc12 (stereo unspecified),/,98*,1,-1,/,0,/,/,
O=C(CSc1ccccc1)NCC1(N2CCOCC2)CCCCC1,4,/,-2,3,i,/,/,/,

# Further records
SMILES,CSC inhib,HIV Env fusion,MT1-MMP act inh,MT1-MMP act inh RFP,Rce1 inhib,Yeast UUG start,PABP polyA inh,eIF4H inh,others
CCCc1c(O)nc(SCC(=O)NCc2ccco2)[nH]c1=O,/,11,2,9,i,/,5,0,
COc1ccc(CCNC(=O)COC(=O)c2ccc(F)c(S(=O)(=O)N3CCOCC3)c2)cc1,-17,/,5,6,/,-9,/,/,
COc1ccccc1CNC(=O)Nc1cccs1,1,/,-2,11,i,-13,16,8,
Cc1ccc2c(c1)Oc1ccc([N+](=O)[O-])cc1C(=O)N2,-4,-7,1,0,i,/,-6,-6,
CCOc1ccccc1OCC(O)CNC (stereo unspecified),-12,/,4,0,i,-11,-2,2,
COCc1[nH]nc2c1C(c1ccccc1Cl)C(C#N)=C(N)O2 (stereo unspecified),-8,-39,-2,3,i,-9,-2,6,
CC(=O)Nc1c(C#N)c(-c2ccccc2)c(C#N)c(=O)n1-c1ccc(C)cc1,/,-20,-2,5,/,-2&-18,/,/,
CCOC(=O)C1=C(C)NC2=C(C(=O)CC(C)(C)C2)C1c1ccc(O)c(OCC)c1 (stereo unspecified),-46,-12,1,-1,i,-14,-3,-6,
N#Cc1nc(-c2ccc(OCc3ccccc3)cc2)oc1NCc1ccco1,-4,/,0,-2,i,-13,-7,0,
O=C(Cn1nc(C(=O)O)c2ccccc2c1=O)NC12CC3CC(CC(C3)C1)C2,-9,-1,3,2,i,/,-3,-7,
COc1ccc2c(c1)C(C)=CC(C)(C)N2C(=O)CNCc1ccc2c(c1)OCO2,12,/,-4,0,i,-6,18,1,
CCn1nc(NS(=O)(=O)c2ccc([N+](=O)[O-])cc2)c2cc3cccc(C)c3nc21,39,7,0,-1,i,-13,18,72,eIF4H inh retest=-6;PABP polyA inh retest=4
COc1cc(SC)ccc1C(=O)N1CCCc2ccccc21,/,3,-5,1,i,-7,4,-4,
COc1ccccc1C(=O)Nc1nnc(S(=O)(=O)N(C)Cc2ccccc2)s1,-1,-2,-1,4,i,-14,/,/,
CCOC(=O)/C(C#N)=C/c1ccc(OCC(=O)Nc2cc(C)ccc2C)c(OC)c1,-5,-467,0,0,i,/,-6,4,
COC(=O)Cn1c(=NC(=O)c2cc(-c3cccs3)nc3ccccc23)sc2cc(S(N)(=O)=O)ccc21,/,-17,-2,-4,i,/,8,-3,
CN(C)CCOc1ccc2ccccc2c1,5,7,-1,1,i,2,4,3,
COc1nc2c(c(-c3cc(Br)cs3)c1C#N)Cc1ccccc1-2,7,7,1,-1,i,-11,-2,-2,

# High-throughput results as filed in PubChem BioAssay.

# This is a subset; rates above refer to the full screens.
